# Bioassay records as filed in PubChem BioAssay.
# SARS PLpro yeast: SARS-CoV PLP inhibition in yeast. S. cerevisiae expressing SARS-CoV PLpro, growth rescue; control for the full effect not named in the record. Potency, µM (top dose mostly 32.9 µM), without a hit: at the highest dose activity, positive = growth rescue. 330,000 tested, 0.19% active. AID 485353; active means well fitted rising curve with a large enough effect; inconclusive means small, poorly fitted or top-dose-only effect; inactive means no such curve, though single readings can be large or run the other way; note: 0% is about no effect; nearly all actives have a fitted effect of over 55% in size; growth read by luminescence after 48 h
# 2A StopGo: FMDV 2A StopGo reporter, luciferase signal; 410,000 tested, 1.2% active; human cells with a luciferase reporter of 2A StopGo recoding; control for the full effect not named in the record; AID 1159524; Potency, µM (top dose mostly 57.9 µM), without a hit: at the highest dose signal change, negative = less light; active = well fitted falling curve with a large enough effect; inconclusive = small, poorly fitted or top-dose-only effect; inactive = no such curve, though single readings can be large or run the other way; tested in HEK293T cells; note: % is set by controls: 0 for no effect and ±100 for the full control effect; nearly all actives have a fitted effect of over 45% in size; luciferase light after 4 h
# NS1 function inh: blocks influenza NS1 protein function; Potency, µM (doses to about 46.1 µM), without a hit: top-dose activity, positive = more growth; S. cerevisiae slowed by influenza A NS1, growth recovery by OD600; 270,000 tested, 0.4% active; active means well fitted rising curve with a large enough effect; inconclusive means small, poorly fitted or top-dose-only effect; inactive means no such curve, though single readings can be large or run the other way; note: nearly all actives have a fitted effect of over 50% in size
#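 S. cerevisiae expressing influenza A NS1, grown in glucose, washed, then diluted 1:100 into pH 6.0 -URA galactose medium with 23 nl compound. Growth recovery read as OD600; NS1-free strain serves as control.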
# Cruzain inh Det: blocks cruzain activity in presence of Triton detergent; Potency, µM, for inactives: max response, negative = inhibition, usual class: inhibitors; P25779; purified cruzain, Z-FR-AMC fluorescence, 0.01% Triton; 200,000 tested, 0.43% active; AID 1478;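 note: plate controls were neutral wells for no effect and buffer without enzyme for full effect; nearly all actives have a fitted effect of over 40% in size; top concentration of the series not given in the record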
# Target sequence (P25779 123-467 limits assumed): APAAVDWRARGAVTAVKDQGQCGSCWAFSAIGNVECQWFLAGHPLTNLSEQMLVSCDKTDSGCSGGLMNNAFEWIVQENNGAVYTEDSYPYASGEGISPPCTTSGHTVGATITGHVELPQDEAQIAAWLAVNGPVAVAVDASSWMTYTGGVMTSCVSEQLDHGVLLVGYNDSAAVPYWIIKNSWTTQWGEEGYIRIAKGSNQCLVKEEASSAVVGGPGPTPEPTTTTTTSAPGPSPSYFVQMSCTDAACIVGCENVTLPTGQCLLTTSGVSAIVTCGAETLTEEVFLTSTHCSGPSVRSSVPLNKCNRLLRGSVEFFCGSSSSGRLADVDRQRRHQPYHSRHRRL
#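 Purified cruzain (1.5 nM final) was preincubated with compounds for 15 min at room temperature in 100 mM sodium acetate pH 5.5, 5 mM DTT, 0.01% Triton X-100. Reaction started with 2 uM Z-FR-AMC; AMC fluorescence change over 60 s gave activity.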
# Marburg entry inh: Marburg virus entry inhibition. Potency, µM (doses to about 37.8 µM), for inactives: top-dose activity change, negative = inhibition, most hits filed as inhibitors. Marburg virus pseudotyped entry inhibition, cell reporter; control for the full effect not named in the record; about a third of the inactives were read at about 46 µM. 300,000 tested, 1.8% active. AID 540276; active = well fitted inhibition curve with a large enough effect; inconclusive = small, poorly fitted or top-dose-only effect, or effect the other way; inactive = flat fitted curve, though single readings scatter; tested in HEK293 cells; about a fifth of its hits are not listed in these tables; note: % is set by controls: 0 for no effect and ±100 for the full control effect; luciferase read-out
# RE007 growth inh: less growth of the S. pombe RE007 Vpr strain. 360,000 tested, 0.21% active. S. pombe RE007 Vpr strain, BacTiter-Glo ATP luminescence, 24 h; control for the full effect not named in the record. Potency, µM (top dose mostly 92.2 µM), inactives show at the top dose activity change, negative = less growth; active = well fitted falling curve with a large enough effect; inconclusive = small, poorly fitted or top-dose-only effect; inactive = no such curve, though single readings can be large or run the other way;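 note: % is set by controls: 0 for no effect and ±100 for the full control effect; nearly all actives have a fitted effect of over 50% in size; the assay follows cell death caused by Vpr and the record does not say whether a fall means rescue or toxicity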
#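 Fission yeast RE007 carrying one integrated HIV-1 vpr copy, seeded at OD 0.01 in PMG+AL medium with 23 nL pinned compound. Grown 24 h at 30 degrees; viability read by BacTiter-Glo luminescence after 5 min.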
# LASV entry inh: inhibitors of Lassa virus binding or cell entry; Lassa virus pseudotype entry inhibition, cell reporter; control for the full effect not named in the record; Potency, µM (top dose mostly 37.9 µM), for the others: at the top dose activity change, negative = inhibition, actives largely listed as inhibitors; 300,000 tested, 1.2% active; active means well fitted inhibition curve with a large enough effect; inconclusive means small, poorly fitted or top-dose-only effect, or effect the other way; inactive means flat fitted curve, though single readings scatter; tested in HEK293 cells; note: % is set by controls: 0 for no effect and ±100 for the full control effect; nearly all actives have a fitted effect of over 50% in size; luciferase read-out
# Cruzain inh noDet: cruzain (T. cruzi) inhibition without detergent; P25779; purified cruzain, Z-FR-AMC fluorescence, no detergent; Potency, µM, without a hit: max response, negative = inhibition, usual class: inhibitors; 200,000 tested, 2.3% active; AID 1476;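 note: plate controls were enzyme without inhibitor for no effect and buffer without enzyme for full effect; nearly all actives have a fitted effect of over 40% in size; top concentration of the series not given in the record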
#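 Purified cruzain at 1.5 nM, pre-incubated 15 min with compound at room temperature in 100 mM sodium acetate pH 5.5, 5 mM DTT, 0.00005% Triton X-100. Reaction started with 2 uM Z-FR-AMC; AMC fluorescence increase over 60 s gives rate.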
# * hit, by the source's call; ? = inconclusive; . = not tested or not shown; & = joins results of further samples; ! = a repeat was not active; [ ] = remark or other dose. Unless noted, calls come from the whole dose curve; as a rule, active = well fitted curve in the direction sought with a large enough effect; inconclusive = small, poorly fitted or top-dose-only effect, or another doubt; inactive = no such curve, though single readings can be large; an effect the other way counts as inactive or inconclusive. Potency is the fitted concentration of half-maximal effect.
SMILES,SARS PLpro yeast,2A StopGo,NS1 function inh,Cruzain inh Det,Marburg entry inh,RE007 growth inh,LASV entry inh,Cruzain inh noDet
COc1ccc2c(C)c(CCC(=O)NCc3ccc(C)cc3)c(=O)oc2c1,.,-20%,.,-6.8%,4%[46.1 µM],.,-18%[46.1 µM],0%
COc1ccc(-c2nn(-c3ccccc3)cc2/C=C(\C#N)S(=O)(=O)c2ccccc2)cc1OC,-13%,-7%,0%,-1.4%,3%,15%,0%,-11%
COc1ccc(-c2nc(CN3CCC(C(=O)N4CCOCC4)CC3)c(C)o2)cc1C,4%,-10%,1%,.,.,7%,.,.
CCN1C(=O)/C(=C/N2CCc3ccccc3C2)SC1=S,0%,0%,2%,.,28%[46.1 µM],0%,5%,.
Cc1nnc(SCCn2c(N3CC(C)CC(C)C3)nc3c2c(=O)[nH]c(=O)n3C)s1 (stereo not given),-2%,-16%,-4%,-3.5%,11%,-18%,-10%,-1%
O=C(c1ccco1)N1CCN(C(=O)N2CCCCC2)CC1,1%,5%,-4%,.,29%[46.1 µM],4%,4%,.
O=C(Nc1cccc2ccccc12)OCc1ccccc1,.,20%,.,.,?,-18%,3%[46.1 µM],.
CCOC(=O)C1CCN(C(=O)N(C)C)CC1,10%,-23%,-1%,3.4%,9%,-12%,9%,1%
CCN(CC(=O)Nc1ccc(Br)c(C)c1)CC(=O)NC(C)C,2%,-19%,.,.,-4%,-13%,0%,.
COc1ccc(CCC(C)Nc2ccccc2F)cc1 (stereo not given),22%,-21%,4%,-6.2%,?,14%,-8%,10%
CC12CCC(C(=O)Nc3cccc4ccccc34)(C1Br)C2(C)C (stereo not given),2%,-7%,-7%,-3.4%,?,-2%,-24%,2%
CC(=O)Nc1ccc(NC(=O)C2CCC(N3C(=O)C4C5C=CC(C6CC56)C4C3=O)CC2)cc1 (stereo not given),6%,-16%,-4%,.,.,-7%,.,.
COC(=O)c1ccc(CSc2nnc3ccc4ccccc4n23)cc1,.,-1%,.,-0.8%,-2%[46.1 µM],.,-21%[46.1 µM],-8%
O=C(O/C(=C/c1ccccc1)C(F)(F)F)c1ccccc1,.,-4%,.,.,?,12%,0%[46.1 µM],.
CCCOc1ccc(-c2cnc(N)s2)cc1,-14%,31%[activator],-8%,-1.5%,?,-7%,?,-3%
O=C(O)CCc1ccc(-c2ccc(F)cc2)n1CC(=O)O,9%,-13%,11%,-0.8%,0%,2%,14%,-2%
Cc1sc2nc(SCC(=O)N3CC(C)OC(C)C3)n(C)c(=O)c2c1C (stereo not given),?,-24%,1%,.,-14%,5%,-23%,.
O=S(=O)(c1ccc(Cl)cc1)N1CCN(c2ccccn2)CC1,-1%,0%,-18%,.,7%,-2%,-9%,.
COC(=O)c1cc(CC(=O)c2ccc(O)cc2O)c(C)o1,-8%,7%,-23%,-0.3%,-28%,9%,-7%,-1%
COc1cc(C)c(S(=O)(=O)N2CCCC2)cc1C,-5%,-11%,0%,3.0%,0%[46.1 µM],-20%,13%,-6%
CCOc1ccc(-c2cc(C(=O)N/N=C/c3cccnc3)c3ccccc3n2)cc1,-6%,-11%,14%,.,?,8%,?,.
O=C(O)c1cccnc1Sc1ccc(Cl)cc1,-2%,-5%,.,.,-1%[46.1 µM],18%,18%,.
O=C(NCc1ccccc1)C1CCCN(C(=O)NCc2ccccc2)C1 (stereo not given),2%,17%,-4%,.,19%[46.1 µM],-7%,2%[46.1 µM],.
CS(=O)(=O)N(CC(=O)N1CCC(C(N)=O)CC1)Cc1ccc(Cl)c(Cl)c1,-1%,6%,-2%,.,.,-9%,.,.
CCOC(=O)c1cn(-c2c(Cl)cccc2Cl)c2cc(Cl)c([N+](=O)[O-])cc2c1=O,13%,?,-2%,-7.1%,-31%,3%,?,-26%
# The results go on.
SMILES,SARS PLpro yeast,2A StopGo,NS1 function inh,Cruzain inh Det,Marburg entry inh,RE007 growth inh,LASV entry inh,Cruzain inh noDet
Cc1cc(C)c(S(=O)(=O)N(CC(=O)NCc2cccnc2)C2CCCCC2)c(C)c1,-4%,-16%,-77%,-7.0%,3%,?,3%,17%
CC(C)CC1c2[nH]c3ccccc3c2CCN1C(=O)C1CCOCC1 (stereo not given),-1%,22%,-5%,.,?,-13%,?,.
CCn1cc(C(=O)N2CCN(c3cccc(Cl)c3)CC2)c2cc(OC)c(OC)cc2c1=O,-5%,?,13%,-7.8%&-3.2%,?,30%,?,?
CCOC(=O)c1cnc(SC)nc1Oc1cccc(NS(=O)(=O)c2ccccc2)c1,-4%,15%,-7%,1.4%,15%,5%,15%,-22%
COc1cccc(CNc2nc3c(-c4ccccc4)nnn3c3ccccc23)c1,.,-15%,.,0.2%,?,.,17%[46.1 µM],3%
COc1ccc(C2/C=C\CN(C(=O)C3CCCC3)CC(=O)N2Cc2ccc(F)cc2)cc1 (stereo not given),0%,34%[activator],-1%,.,.,-13%,.,.
CCn1cc(CN2CCCC(CO)(Cc3cccc(Cl)c3)C2)cn1 (stereo not given),1%,10%,1%,.,-17%[46.1 µM],-2%,-3%,.
O=C(COc1ccccc1Cl)Nc1ccc2oc(-c3ccccc3F)nc2c1,.,1%,.,-2.7%,26%[46.1 µM],.,14%[46.1 µM],-15%
OC1(C#CCN2CCCC2)c2ccccc2-c2ccccc21,0%,-24%,0%,.,11%,9%,22%,.
CC1(C)Cc2ccccc2-c2nc(NCCCO)n(-c3ccccc3)c(=O)c21,-1%,-29%,9%,?,-22%,-15%,-17%,?
O=C(NCCc1ccccc1)C(=O)NCc1ccncc1,8%,-7%,3%,0.7%,7%,14%,5%,4%
O=C(O)CCCN(Cc1cccc(Br)c1)S(=O)(=O)c1ccc(Br)cc1,2%,1%,.,.,18%[46.1 µM],5%,-3%[46.1 µM],.
CC(OC(=O)CN1C(=O)C2C3C=CC(C4CC34)C2C1=O)C(=O)c1ccccc1 (stereo not given),6%,-2%,-11%,.,?,-17%,?,.
Cc1cccc(C(=O)NCCc2ccccc2)c1,1%,37%[activator],-31%,.,?,1%,?,.
Fc1ccccc1CNC(=S)Nc1cccc(C(F)(F)F)c1,-30%,-5%,-36%,-6.3%,.,20%,?,-2%
COc1ccc(/C=N/NC(=O)Nc2ccc3nsnc3c2)c(OC)c1,-1%,20%,-3%,.,9%,-1%,6%,.
O=C(Nc1cccc(-c2cccc(F)c2)c1)C1CCN(Cc2ccc(CO)o2)CC1,7%,5%,1%,.,.,3%,.,.
Cc1ccc(NC(=O)Cn2nnc3sc(-c4ccccc4)cc3c2=O)cc1Cl,.,-25%,.,-4.6%,-9%[46.1 µM],.,25%[46.1 µM],?
COc1ccc(C(=O)CSc2nc(C)cc(=O)[nH]2)cc1C,-1%,6%,5%,.,0%[46.1 µM],-15%,25%[46.1 µM],.
C#CCOc1ccc(/C=C2\SC(=S)N(Cc3cccnc3)C2=O)cc1,-15%,18%,3%,-5.6%,?,0%,8%,9%
CCOC(=O)Nc1ccc(C)cc1C,0%,31%[activator],10%,4.5%,-3%,3%,13%,1%
CCN(Cc1ccccc1)C(=O)CN1C(=O)NC2(CC(C)CC(C)(C)C2)C1=O (stereo not given),7%,-16%,11%,.,?,-4%,1%,.
O=C(c1ccc(F)cc1)c1cc2ccc(O)cc2oc1=O,-5%,9%,-32%,.,?,?,8%[46.1 µM],.
COc1nc(N)nc(N2CCOCC2)n1,0%,-12%,-2%,9.3%,1%,8%,7%,-8%
NC(=O)CSc1nnnn1-c1ccc(OC(F)(F)F)cc1,10%,-20%,5%,5.2%,-1%,-2%,26%,2%
# The list continues:
SMILES,SARS PLpro yeast,2A StopGo,NS1 function inh,Cruzain inh Det,Marburg entry inh,RE007 growth inh,LASV entry inh,Cruzain inh noDet
COc1ccc(CNS(=O)(=O)c2ccc(C3CNC(=O)C3)cc2)cc1 (stereo not given),5%,.,3%,-0.4%,4%,-10%,-5%,-2%
CC(=O)c1ccc(N2CCN(C(=O)/C=C/c3cccs3)CC2)cc1,-3%,12%,.,.,3%[46.1 µM],2%,10%,.
CC(C)(C)c1ccc(-c2nc(NC(=O)CSc3ncnc4sc5c(c34)CCCC5)ns2)cc1,.,-9%,.,-1.2%,?,.,17%[46.1 µM],12%
Cn1[nH]c(-c2ccccc2)c(/C=N/O)c1=O,-1%,13%,.,.,20%[46.1 µM],-15%,1%,.
Fc1ccc(CCNC(=S)Nc2ccc(F)cc2)cc1,?,42%[activator],-21%,-8.2%,5%,8%,-6%,2%
O=C(CSc1cc(Cl)ccc1Cl)NCCN1C(=O)CSC1=O,-8%,-14%,.,.,-9%[46.1 µM],10%,0%[46.1 µM],.
Cc1ccc(/C=N\NC(=O)c2cc(OCC(F)(F)F)ccc2OCC(F)(F)F)cc1,9%,0%,24%,-6.7%,?,7%,?,?
COC(C(=O)N/N=C(\C)c1ccc(C(C)(C)C)cc1)c1ccccc1 (stereo not given),-5%,-30%,-8%,.,1%,2%,?,.
O=C(NCc1cccs1)c1ccccc1F,11%,18%,5%,1.1%,19%,-9%,-2%,2%
CC(C)(C)c1nc(SCC(=O)NCc2cccs2)c2ccccc2n1,1%,10%,1%,.,.,-5%,.,.
C[N+](C)(C)CC#CCN1CCCC1=O,.,-13%&-13%,?,5.0%&2.9%,?,-14%[18.4 µM],41%,-1%&9%
CSc1ccc(CN(C)CC(=O)NCc2ccccc2)cc1,2%,-21%,.,.,-1%[46.1 µM],2%,?,.
COc1cccc(C(=O)Oc2ccccc2/C=C\C(=O)c2cc3ccccc3o2)c1,5%,0%,?,-3.7%,.,-3%,.,-9%
COc1ccccc1-c1cc(C(F)(F)F)nc(S(=O)(=O)CCCC(=O)N2CCOCC2)n1,1%,22µM*,-1%,-10%,11µM*!,-3%,13µM*,?
CCOC(=O)c1sc2nc(CSc3ccccc3)[nH]c(=O)c2c1C,0%,-7%,.,.,8.9µM*,2%,?,.
O=C(CN1C(=O)c2ccc([N+](=O)[O-])cc2C1=O)NCc1ccco1,0%,1%,3%,.,?,-2%,?,.
C=CCn1cn[nH]c1=S,1%,8%,2%,.,?,-3%,3%,.
O=C1NCCN(Cc2ccoc2)C1CC(=O)N(Cc1ccccc1)CC1CCC1 (stereo not given),0%,1%,2%,.,1%[46.1 µM],2%,-8%,.
